Screens from PubChem.
rRNA inh HTS = inhibits bacterial ribosomal RNA function over humanized ribosomes; GFP signal change (wild-type ribosome), % (concentration not given with the values); 350,000 tested, 1.6% active; E. coli WT GFP vs humanized-ribosome RFP mutants, fluorescence, 24 h; hits give low values; DMSO median 0, no signal -100;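 active = significant combined selectivity score with lowered wild-type GFP, culture density cut under 30%, mutant RFP and density less affected; inactive = any of these conditions unmet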; note: one replicate is shown; some compounds called inactive have numbers as strong as hits
FGF22 binding = shifts melting point of recombinant human FGF22; Q9HCT0; recombinant FGF22 thermal shift, SYPRO orange fluorescence; percent of sucrose octasulfate shift, DMSO zero; calls only at 9.99 µM; 340,000 tested, 1.5% active; AID 651658;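 active = melting point raised past a set limit in the mean and every replicate; three in four hits are not shown here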
Target sequence (Q9HCT0 whole entry, looked up): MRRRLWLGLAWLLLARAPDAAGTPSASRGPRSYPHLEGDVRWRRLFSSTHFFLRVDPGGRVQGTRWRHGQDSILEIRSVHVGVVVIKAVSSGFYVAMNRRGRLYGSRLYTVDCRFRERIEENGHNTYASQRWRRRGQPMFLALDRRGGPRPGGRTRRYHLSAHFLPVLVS
rRNA inh HTS OD600 = second read-out of rRNA inh HTS, no call of its own (marks repeat the call); OD600 change, %; measured here: OD600 growth;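 optical density of the mix in the first replicate; 0 = DMSO median and -100 = no signal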
rRNA inh HTS RFP = recorded beside rRNA inh HTS, whose call it bears; RFP signal change, %; measured here: RFP humanized mutant strains;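 first replicate; 0 = DMSO median and -100 = no signal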
* = called active by the depositor; i = inactive; & = joins results of further samples. This is a subset; the hit share may differ from the screen's.

rRNA inh HTS RFP	FGF22 binding	rRNA inh HTS OD600	rRNA inh HTS	mol
-3.2	i	-11	-5	C[C@H]1CN([C@@H](C)CO)C(=O)c2cccc(NC(=O)c3cnccn3)c2O[C@H]1CN(C)Cc1ccc(Oc2ccccc2)cc1
-0.3	i	-2	-2	COc1ccc(NC(=O)N(C)C[C@H]2Oc3ccc(NS(=O)(=O)c4c(C)noc4C)cc3CC(=O)N([C@@H](C)CO)C[C@H]2C)cc1
0.3	i	6	6	C[C@@H](NC(=O)C[C@H]1C[C@H]2c3cc(NC(=O)NC4CCCC4)ccc3O[C@H]2[C@@H](CO)O1)c1ccccc1
1.1	i	-9	-3	COCCNC(=O)C[C@H]1C[C@@H]2c3cc(NC(=O)c4cccnc4)ccc3O[C@@H]2[C@@H](CO)O1
-0.2	i	0	5	COc1ccc(NC(=O)N(C)C[C@H]2Oc3ccc(NC(=O)c4ccncc4)cc3CC(=O)N([C@@H](C)CO)C[C@@H]2C)cc1
2.5	i	-6	-4	C[C@@H]1CCCCO[C@@H](CN(C)C(=O)CCC(F)(F)F)[C@H](C)CN([C@H](C)CO)C(=O)c2cc(NC(=O)c3ccccc3)ccc2O1
-1.1	i	-2	-5	CCCNC(=O)C[C@H]1CC[C@@H]2[C@@H](COc3ccc(NC(=O)c4cccs4)cc3C(=O)N2C)O1
-0.6	i	4	0	COc1ccc(NC(=O)N(C)C[C@@H]2Oc3ccc(NC(=O)NC4CCCCC4)cc3CC(=O)N([C@H](C)CO)C[C@H]2C)cc1
-2.6	i	1	4	COc1ccc(NC(=O)N(C)C[C@H]2Oc3c(NS(=O)(=O)c4cn(C)cn4)cccc3C(=O)N([C@@H](C)CO)C[C@@H]2C)cc1
-0.3	i	-2	-1	CC(C)NC(=O)N(C)C[C@H]1Oc2ccc(NS(=O)(=O)c3ccc(Cl)cc3)cc2C(=O)N([C@@H](C)CO)C[C@H]1C

Full records, quoted from the list:
`C[C@@H]1CCCCO[C@@H](CN(C)C(=O)CCC(F)(F)F)[C@H](C)CN([C@H](C)CO)C(=O)c2cc(NC(=O)c3ccccc3)ccc2O1` is listed with rRNA inh HTS RFP: 2.5; FGF22 binding: i; rRNA inh HTS OD600: -6; rRNA inh HTS: -4
`COCCNC(=O)C[C@H]1C[C@@H]2c3cc(NC(=O)c4cccnc4)ccc3O[C@@H]2[C@@H](CO)O1` is listed with rRNA inh HTS RFP: 1.1; FGF22 binding: i; rRNA inh HTS OD600: -9; rRNA inh HTS: -3

Going on with the list.
rRNA inh HTS RFP	FGF22 binding	rRNA inh HTS OD600	rRNA inh HTS	mol
1.2	i	0	-2	CC(=O)N1[C@H](CO)[C@@H]2c3ccccc3N(S(=O)(=O)c3cccc(C)c3)C[C@@H]21
-1.6	i	0	1	CN(C)CC(=O)N[C@H]1C=C[C@H](CC(=O)NCc2ccccc2F)O[C@@H]1CO
-2.4	i	16	8	C[C@H]1CN([C@@H](C)CO)C(=O)c2cc(C#Cc3ccccn3)cnc2O[C@H]1CN(C)C(=O)c1ccccn1
1.1	i	5	3	CN(C)CCCNC(=O)C[C@@H]1CC[C@@H]2[C@@H](COc3ccc(NC(=O)C4CCC4)cc3C(=O)N2C)O1
1.4	i	6	2	CCNC(=O)C[C@@H]1CC[C@H]2[C@@H](COc3ccc(NC(=O)Nc4cccc(C)c4)cc3C(=O)N2C)O1
-3.6	i	5	4	CC(C)NC(=O)N(C)C[C@@H]1Oc2ccc(NC(=O)Nc3ccc4c(c3)OCO4)cc2C(=O)N([C@@H](C)CO)C[C@H]1C
-1.3	i	-13	-3	COc1ccc(NC(=O)N(C)C[C@H]2Oc3c(NC(=O)Nc4ccc5c(c4)OCO5)cccc3C(=O)N([C@@H](C)CO)C[C@H]2C)cc1
-3.0	i	-28	-24	C[C@@H]1CN([C@@H](C)CO)C(=O)c2cc(N(C)C)ccc2O[C@@H]1CN(C)C(=O)Nc1ccc(C(F)(F)F)cc1
0.1	i	-1	2	CN1C(=O)c2cc(NC(=O)c3cccc(C(F)(F)F)c3)ccc2OC[C@@H]2O[C@@H](CC(=O)NCCN3CCCC3)CC[C@H]21
-1.2	i	1	5	CCC(=O)N(C)C[C@@H]1Oc2cc(C#C[C@@H](C)O)ccc2S(=O)(=O)N([C@H](C)CO)C[C@H]1C
-1.2	i	-5	-5	C[C@@H]1CN([C@@H](C)CO)C(=O)c2cc(N(C)C)ccc2O[C@H]1CN(C)S(=O)(=O)c1ccc(Cl)cc1
-1.0	i	4	-6	C[C@@H]1CN([C@@H](C)CO)C(=O)c2cccc(NC(=O)Nc3ccc(F)cc3)c2O[C@H]1CN(C)C(=O)Nc1ccc2c(c1)OCO2
1.3	i	-8	-1	Cc1noc(C)c1S(=O)(=O)Nc1ccc2c(c1)C(=O)N([C@H](C)CO)C[C@H](C)[C@H](CN(C)S(=O)(=O)c1ccccc1)OCCCC[C@@H](C)O2
-0.2	i	7	2	C/C=C/c1ccc([C@H]2[C@@H](CO)N(S(C)(=O)=O)[C@@H]2CN(C)C(=O)CC)cc1
1.7	i	-10	-8	O=C(C[C@@H]1CC[C@H]2[C@@H](COC[C@H](O)CN2Cc2cccc(Cl)c2)O1)NCc1cccc(F)c1
1.9	i	-4	1	C[C@H]1CCCCO[C@H](CN(C)C(=O)C2CCCCC2)[C@@H](C)CN([C@@H](C)CO)C(=O)c2cc(NC(=O)Nc3ccccc3)ccc2O1
0.8	i	-1	1	O=C(C[C@@H]1C[C@H]2c3cc(NC(=O)C4CCC4)ccc3O[C@H]2[C@@H](CO)O1)NCc1ccncc1
-0.4	i	-10	0	O=C(C[C@@H]1C[C@@H]2c3cc(NC(=O)CC4CC4)ccc3O[C@@H]2[C@@H](CO)O1)NCc1cccc(F)c1
-2.6	i	2	-1	COc1ccccc1S(=O)(=O)N[C@H]1C=C[C@H](CC(=O)N2CCCCC2)O[C@H]1CO
-2.0	i	-4	-1	CC(C)NC(=O)N[C@@H]1C=C[C@H](CC(=O)NCCN2CCCC2)O[C@@H]1CO
-0.5	i	0	5	COc1ccc(S(=O)(=O)N(C)C[C@H]2OCCCC[C@@H](C)Oc3ccc(NC(=O)Nc4cccc5ccccc45)cc3C(=O)N([C@H](C)CO)C[C@@H]2C)cc1
-0.1	i	8	0	O=C(Nc1cccc(F)c1)N1C[C@@H]2[C@H](c3ccccc31)[C@H](CO)N2C(=O)C1CCOCC1
0.6	i	3	-4	CO[C@H]1CN(C)C(=O)c2ccc(NC(=O)Nc3cc(F)ccc3F)cc2OC[C@H](C)N(C(=O)c2ccccn2)C[C@@H]1C
-0.4	i	5	2	C[C@@H]1CN([C@@H](C)CO)S(=O)(=O)c2ccc(-c3cccc(C(=O)N(C)C)c3)cc2O[C@H]1CN(C)C(=O)Cc1ccccn1
-1.7	i	0	-3	C[C@H](CO)N1C[C@H](C)[C@@H](CN(C)C(=O)C2CC2)Oc2ncc(C#Cc3ccccc3)cc2C1=O
5.5	i	12	7	CCNC(=O)C[C@H]1CC[C@H]2[C@H](COc3ccc(NC(=O)C4CCOCC4)cc3C(=O)N2C)O1
-1.3	i	14	8	Cc1ccc(S(=O)(=O)N(C)C[C@@H]2Oc3ncc(C#CC4(O)CCCC4)cc3C(=O)N([C@H](C)CO)C[C@@H]2C)cc1
2.0	i	-15	-3	CCCNC(=O)N1CC2(CN(Cc3cccc(OC)c3)C2)c2c([nH]c3cc(OC)ccc23)[C@@H]1CO
-3.4	i	1	2	C[C@H](O)C#Cc1ccc([C@@H]2[C@@H](CO)N3CCCCN(C(=O)c4ccc5c(c4)OCO5)C[C@H]23)cc1
6.5	i	-19	-10	COc1ccccc1CNC(=O)C[C@H]1CC[C@@H]2[C@H](COc3ccc(NC(=O)Nc4ccc(F)c(F)c4)cc3C(=O)N2C)O1

Grouped by structure: the compounds so far containing a Cl atom.
rRNA inh HTS RFP	FGF22 binding	rRNA inh HTS OD600	rRNA inh HTS	mol
-0.3	i	-2	-1	CC(C)NC(=O)N(C)C[C@H]1Oc2ccc(NS(=O)(=O)c3ccc(Cl)cc3)cc2C(=O)N([C@@H](C)CO)C[C@H]1C
-1.2	i	-5	-5	C[C@@H]1CN([C@@H](C)CO)C(=O)c2cc(N(C)C)ccc2O[C@H]1CN(C)S(=O)(=O)c1ccc(Cl)cc1
1.7	i	-10	-8	O=C(C[C@@H]1CC[C@H]2[C@@H](COC[C@H](O)CN2Cc2cccc(Cl)c2)O1)NCc1cccc(F)c1

Carrying on:
rRNA inh HTS RFP	FGF22 binding	rRNA inh HTS OD600	rRNA inh HTS	mol
0.0	i	6	2	CCCNC(=O)C[C@@H]1CC[C@H]2[C@@H](COc3ccc(NC(=O)c4cc(C)on4)cc3C(=O)N2C)O1
-2.6	i	4	6	C[C@H]1CN([C@@H](C)CO)C(=O)c2cc(-c3ccncc3)cnc2O[C@H]1CN(C)C(=O)c1ccc(F)cc1
-2.0	i	7	6	CN1C[C@H](O)COC[C@@H]2O[C@H](CC(=O)NC3CCC3)CC[C@H]21
-0.6	i	8	2	CCC(=O)Nc1ccc2c(c1)OC[C@@H](C)N(C(=O)NC(C)C)C[C@@H](C)[C@H](OC)CN(C)C2=O
-0.3	i	3	0	CC(=O)N[C@@H]1C=C[C@H](CC(=O)NCC2CCCCC2)O[C@@H]1CO
0.1	i	-5	2	CCNC(=O)C[C@H]1CC[C@@H]2[C@H](COc3ccc(NC(=O)Nc4ccc(C)cc4)cc3C(=O)N2C)O1
-3.1	i	4	1	COCC(=O)N1CC2(C1)[C@H](c1ccccc1)[C@@H](CO)N2C(=O)c1ccccc1
2.8	i	-4	1	CO[C@@H]1CN(C)C(=O)c2ccc(NC(C)=O)cc2OC[C@@H](C)N(CC2CC2)C[C@@H]1C
0.4	i	2	1	COc1ccc(NC(=O)N(C)C[C@H]2OCc3cnnn3CCCC(=O)N([C@@H](C)CO)C[C@@H]2C)c(OC)c1
-1.7	i	0	3	C/C=C/c1ccc([C@@H]2[C@H](CO)N(C(=O)CC)C23CN(S(=O)(=O)CC)C3)cc1
0.9&1.3	i	-6&1	-3&0	COc1ccccc1C(=O)Nc1ccc2c(c1)C(=O)N(C)C[C@@H](OC)[C@@H](C)CN[C@H](C)CO2
-2.7	i	1	1	CCC(=O)N(C)C[C@@H]1Oc2cc(-c3cccnc3)ccc2S(=O)(=O)N([C@@H](C)CO)C[C@@H]1C
-17	i	-83	-56	C=CCN=C1NC(c2ccccc2)C(C(=O)OC)=C(C)N1Cc1cccc(C(F)(F)F)c1 (stereo not drawn)
3.9	i	11	2	CCCC(=O)Nc1ccc2c(c1)OC[C@H](C)N(C(=O)c1cccnc1)C[C@H](C)[C@@H](OC)CN(C)C2=O
2.9	i	0	-4	C[C@H]1CN([C@@H](C)CO)C(=O)c2cccc(NC(=O)CCCCCC(=O)Nc3ccccc3N)c2O[C@@H]1CN(C)S(=O)(=O)c1ccc(Cl)cc1
1.9	i	-9	-2	CO[C@H]1CN(C)C(=O)c2ccc(NC(=O)Nc3cc(F)ccc3F)cc2OC[C@@H](C)N(C(=O)c2cnccn2)C[C@@H]1C
-2.3	i	13	5	C[C@H](CO)N1C[C@H](C)[C@@H](CN(C)C)Oc2cc(C#Cc3ccccn3)ccc2S1(=O)=O
1.7	i	2	1	COc1ccccc1NC(=O)N(C)C[C@@H]1Oc2ncc(C#CCC(C)C)cc2C(=O)N([C@H](C)CO)C[C@@H]1C
-1.2	i	11	1	O=C(C[C@H]1CC[C@H]2[C@@H](COC[C@H](O)CN2C(=O)c2cnccn2)O1)N1CCN(c2ccccc2)CC1
-1.1	i	3	2	CC(C)NC(=O)Nc1ccc2c(c1)CC(=O)N([C@@H](C)CO)C[C@H](C)[C@H](CN(C)C(=O)Nc1ccc(C(F)(F)F)cc1)O2

2 entries from above in another layout:
Compound | rRNA inh HTS RFP | FGF22 binding | rRNA inh HTS OD600 | rRNA inh HTS
C[C@H]1CN([C@@H](C)CO)C(=O)c2cccc(NC(=O)CCCCCC(=O)Nc3ccccc3N)c2O[C@@H]1CN(C)S(=O)(=O)c1ccc(Cl)cc1 | 2.9 | i | 0 | -4
CO[C@H]1CN(C)C(=O)c2ccc(NC(=O)Nc3cc(F)ccc3F)cc2OC[C@@H](C)N(C(=O)c2cnccn2)C[C@@H]1C | 1.9 | i | -9 | -2

Next section
rRNA inh HTS RFP	FGF22 binding	rRNA inh HTS OD600	rRNA inh HTS	mol
2.0	i	7	6	C[C@@H]1CCCCO[C@@H](CN(C)C)[C@H](C)CN([C@@H](C)CO)C(=O)c2cc(NC(=O)c3ccccc3)ccc2O1
-5.7	i	-15	-4	C/C=C/c1ccc2c(c1)O[C@@H](CN(C)C(=O)c1cccc(F)c1)[C@H](C)CN([C@H](C)CO)S2(=O)=O
3.0	i	-6	4	O=C(c1cccnc1)N1CC(=O)N2[C@H](CO)[C@H](c3ccc(C#CCC4CCCC4)cc3)[C@H]2C1
-1.6	i	-1	-1	C[C@@H]1CN([C@@H](C)CO)C(=O)c2cc(NS(C)(=O)=O)ccc2O[C@H]1CN(C)Cc1ccc(C(=O)O)cc1
-2.8	i	10	3	COc1ccccc1S(=O)(=O)N[C@H]1CC[C@@H](CC(=O)N2CCCCC2)O[C@H]1CO
-0.4	i	3	0	CO[C@H]1CN(C)C(=O)c2cc(NC(=O)c3ccccc3F)ccc2OC[C@@H](C)N(C)C[C@H]1C
1.2	i	-10	0	C[C@H]1CCCCO[C@H](CN(C)S(=O)(=O)c2ccc(F)cc2)[C@@H](C)CN([C@@H](C)CO)C(=O)c2cc(NS(C)(=O)=O)ccc2O1
-0.4	i	-3	0	O=C(C[C@H]1C=C[C@@H](NC(=O)c2cccc(F)c2)[C@H](CO)O1)NCc1ccccc1
3.0	i	35	16	COc1cc2c(c(OC)c1OC)[C@@]1(c3ccccc3)CCCC[C@H]1[C@@H]2NC(=O)C(F)(F)F
